NPYLR7 ag – mosquito NPYLR7 agonism; HEK293T NPYLR7/Galpha15, GCaMP6s calcium fluorescence; activation, % at 10 µM; 0.15% of 270,000 active; AID 1259423; in the data active means activation above about 40%;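 further: 0% = vehicle and 100% = reference agonist at the receptor; some compounds past the cut are filed as inactive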
NPYLR7 ag max-min – further read-out of NPYLR7 ag, marked with its call; activation, %; measured here: Max-Min RFU normalised activation; some inactives read as strong as hits;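 span of the calcium signal over five minutes; 0% = vehicle and 100% = native peptide agonist; compound fluorescence can raise it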
* hit, by the source's call; & = joins results of further samples. An excerpt, so the mix of outcomes need not match the whole.

SMILES	NPYLR7 ag	NPYLR7 ag max-min
O=C(c1cc(F)cc2c1OCOC2)N1CCOC(COCc2ccc(F)cc2Cl)C1 (stereo not given)	-9	-9
O=C(C=Cc1ccccc1)OCC(=O)c1ccc([N+](=O)[O-])cc1	-1	7
Fc1cccc(-n2cnc3cnc(-c4cccc(OC(F)(F)F)c4)cc32)c1	14	5
NC(=O)C1(N2CCN(C(=O)c3ccc(Cl)cc3)CC2)CCCCC1	5	3
O=C(Nc1c2c(nn1-c1ccccc1)CCC2)C1CCCO1 (stereo not given)	9	5
COc1ncccc1-c1ccc(N)nc1	7	3
CC(NC(=O)CCC(=O)N1CCOCC1)c1ccc(OC(F)(F)F)cc1 (stereo not given)	-4	-6
CCCN(CCC(=O)NCc1ccccc1)c1nc(CC)nc2cc(Cl)ccc12	-8	-7
O=C(Nc1ccncc1)c1sc2ccccc2c1Cl	7	9
O=C(NCC1OCCN1S(=O)(=O)c1ccccc1)C(F)(F)F (stereo not given)	2	8
COC[C@H](C)NC(=O)c1ccc(-c2cc(-c3cccc4ccccc34)[nH]n2)cc1	-1	11
CCCCc1nc2cc(C(=O)N3CCC(Oc4ccccc4F)CC3)ccc2o1	-2	-4
O=C(NCC(F)(F)F)c1ccc2sc([C@@H]3O[C@H](CO)[C@H](O)[C@H](O)[C@H]3O)nc2c1	5	2
CCCCCCCOc1ccc(NC(=O)N[C@@H](Cc2ccccc2)C(=O)N2CCC(C(=O)N3CCCCC3)CC2)cc1	4	2
CCCCN(CC(=O)N1c2ccccc2-n2cccc2C1c1ccccc1)C(=O)c1ccc2c(c1)OCO2 (stereo not given)	16	18
CCOc1ccsc1C(=O)N1CCC2(CC1)Nc1ccccc1C(=O)N2Cc1ccccc1	0	21
Cc1noc(-c2cccnc2)c1C(=O)NCc1cccc2ccccc12	2	5
COc1ccccc1N=Nc1c(C)[nH]n(-c2nc(-c3ccc(Br)cc3)cs2)c1=O	1	-4
Cc1ccc(C2CC(c3ccc(Br)cc3)n3nnnc3N2)cc1C (stereo not given)	6	4
CC(C)CCn1c(=O)c2c(nc3n2CCCN3Cc2ccccc2)n(C)c1=O	24	15
CC(c1ccco1)N(C(=O)Nc1cnn(-c2ncccn2)c1)C1CC1 (stereo not given)	-1	0
O=C(c1ccc(CSc2nnc(-c3ccco3)n2-c2cccc(Cl)c2)cc1)N1CCCC1	2	10
COc1cc(Br)c(S(=O)(=O)Nc2ccc(C(=O)O)cc2C)cc1OC	6	1
Cc1cc(C)c(C#N)c(SCc2ccc(C(=O)N3CCCC3)cc2)n1	-2	-2
CCOc1ccc(NC(=O)CSc2nc3[nH]ncc3c(=O)[nH]2)cc1	-4	-5
COc1ccccc1-c1cc(C(=O)NCc2ccco2)n2nc(-c3ccc(Cl)cc3)cc2n1	4	11
O=C1CCC(C(=O)N2CCC(Cn3cccn3)CC2)CN1Cc1cccc(C(F)(F)F)c1 (stereo not given)	5	2
CCC(CC)C1C2=C(CC(C)(C)CC2=O)OC(=N)C1C#N (stereo not given)	10	9
O=C(O)CCN1C(=O)/C(=C\c2ccc(-c3ccccc3)o2)SC1=S	-5	-8
Cc1cc(C)c(N2C(=O)CC3(CCN=N3)C2=O)c(C)c1 (stereo not given)	3	2
COc1cccc(-n2nc(C(=O)NCc3ccc4c(c3)OCO4)c(=O)n(Cc3ccccc3Cl)c2=O)c1	1	2
Cc1sc(NC(=O)Cn2nc([N+](=O)[O-])c(Br)c2C)c(C(N)=O)c1C	1	-4
CN(Cc1ccccc1)C1(CNC(=O)c2ccc[n+]([O-])c2)Cc2ccccc2C1	6	2
O=C(O)c1cccc(COc2ccc(F)cc2Br)c1	5	4
COCCNS(=O)(=O)c1ccc2[nH]c(=O)[nH]c2c1	13	7
Cc1nc(C)c(C(=O)Nc2c(C)nc3sccn3c2=O)s1	7	-2
O=C(CSc1ncccn1)NCC1Cc2cc(-c3cncnc3)ccc2O1 (stereo not given)	9	6
CC1=NN(Cc2ccc(F)cc2)c2nc3c(c(=O)n(Cc4ccc(F)cc4)c(=O)n3C)n2C1	3	5
Cc1ccccc1-n1ncc(C(C)NC(=O)c2cccc(N3CCNC3=O)c2)c1C (stereo not given)	16	4
CCC(c1ccc(OC)cc1)N(C)C(=O)c1cnc2ccccn12 (stereo not given)	13	2

An excerpt of these results, with values under each structure:
Results follow in this order: NPYLR7 ag, NPYLR7 ag max-min
O=C(NCC(F)(F)F)c1ccc2sc([C@@H]3O[C@H](CO)[C@H](O)[C@H](O)[C@H]3O)nc2c1
    5, 2
CCCCCCCOc1ccc(NC(=O)N[C@@H](Cc2ccccc2)C(=O)N2CCC(C(=O)N3CCCCC3)CC2)cc1
    4, 2
CCCCN(CC(=O)N1c2ccccc2-n2cccc2C1c1ccccc1)C(=O)c1ccc2c(c1)OCO2 (stereo not given)
    16, 18
CCOc1ccsc1C(=O)N1CCC2(CC1)Nc1ccccc1C(=O)N2Cc1ccccc1
    0, 21

Retrieved by structure from the entries so far, two records:
SMILES	NPYLR7 ag	NPYLR7 ag max-min
CC1=NN(Cc2ccc(F)cc2)c2nc3c(c(=O)n(Cc4ccc(F)cc4)c(=O)n3C)n2C1	3	5
CCC(c1ccc(OC)cc1)N(C)C(=O)c1cnc2ccccn12 (stereo not given)	13	2

(continued)
SMILES	NPYLR7 ag	NPYLR7 ag max-min
CCN(C)c1cc(Oc2ccc(F)c(Cl)c2)ncn1	-11	-8
CN(Cc1cnn(C)c1)C(=O)C1CCCN(C(N)=O)C1 (stereo not given)	-4	-4
N#Cc1cc(CN2CCC(Nc3ncnc4sc(Cl)cc34)CC2)ccc1F	-3	-6
CCOc1ccccc1-n1nnc(C(=O)Nc2ccc(C)cc2C)c1C	-5	-9
CCCCC(=O)Nc1c(-c2cc(F)ccc2F)nc2cc(C)ccn12	-6	-4
CCc1ccc(S(=O)(=O)NCCn2nc(-c3cccnc3)ccc2=O)cc1	6	-5
CNC(=O)c1cccc(NC(=O)c2cc3c(C)nn(Cc4ccccc4)c3s2)c1	5	6
O=C(CSc1nnc(-c2ccco2)o1)NC1CC1	1	1
O=C1NC2(CCN(Cc3ccncc3)CC2)Nc2cccc(F)c21	3	8
O=C(O)c1cc([N+](=O)[O-])cc2c1nnn2O	-2	1
O=C(NC(c1ccc(F)cc1)c1cnccn1)C1CCN(Cc2ccc(Cl)c(Cl)c2)CC1 (stereo not given)	16	5
CN(CCc1ccccc1)c1nc(CCN)nc2ccccc12	4	3
Cc1noc(C)c1COc1ccc(C(=O)N2CCN(C(=O)CN(C)C)CC2)cc1	1	-1
O=C(O)c1ccc(CNCC2CCCCC2)cc1	-12	-19
O=C(NCc1ccc(F)cc1)NNC(=O)c1cccn(Cc2cccc(F)c2)c1=O	5	0
CC(=O)N(Cc1csc(COc2ccc(C)cc2)n1)C1CC1	43	33
CC(=O)Nc1ccc(NC(=O)CSc2nc(=O)n(CC3CCCO3)c3c2CCC3)cc1 (stereo not given)	0	-6
Cn1nc2c3c(cccc3c1=O)-c1ccccc1-2	4	8
CCOc1ccccc1NC(=O)NCc1nnc(SCc2ccccc2C)n1-c1cc(Cl)ccc1Cl	16	21
O=C(NCCn1nc(-c2cccnc2)ccc1=O)Nc1ccc(OC(F)(F)F)cc1	15	7
COCCN(CC(=O)N(CCc1ccc(OC)c(OC)c1)Cc1ccc(C)o1)C(=O)c1ccc(OC)cc1	10	9
COc1cccc(OCCN2CCN(c3ncnc4c3CCNC4)CC2)c1	6	4
COc1cc(/C=C2/SC(=Nc3ccccc3)NC2=O)ccc1OCC(=O)O	-9	-16
Cc1cccc(NC(=O)CCC2CCN(CC3CC=CCC3)CC2)c1 (stereo not given)	8	4
CCCC(NC(=O)C1CCN(c2ccccc2[N+](=O)[O-])CC1)c1ccccc1 (stereo not given)	-4	-6
COCCNC(=O)c1nn(-c2ccccc2F)c(=O)n(Cc2ccc(C(F)(F)F)cc2)c1=O	-6	2
O=C1C(Nc2cccc(C(F)(F)F)c2)=C(N2CCOCC2)C(=O)c2ccccc21	6	2
O=C1c2ccccc2C(=O)c2c(Nc3ccccc3Cl)ccc(Nc3ccccc3Cl)c21	-8	-13
Cc1nc(NCCNC(=O)c2c(F)cccc2Cl)cc(-n2cccn2)n1	-8	-12
Nc1nonc1-n1nncc1-c1cccc2ccccc12	0	-1
CC(Oc1ccc(F)cc1)C(=O)Nc1ccc(N2CCCC2=O)cc1 (stereo not given)	2	2
Cc1c(Br)c([N+](=O)[O-])nn1CC(=O)NCc1ccco1	-4	-6
CCOC(=O)[C@@H]1CN2CCN(S(=O)(=O)c3ccccc3)C[C@@H]2[C@H]1c1ccccc1	3	9
CCN(CC)C(=O)Oc1ccc2c(ccn2Cc2ccccc2I)c1-c1ccc(F)c(Cl)c1	17	12
O=c1cc(-c2ccccc2O)oc2cc(O)ccc12	-15	-18
O=C1OC23CCC(CC2)N(C(=O)c2cccs2)C3CN1Cc1ccccc1 (stereo not given)	26	33
Cc1nc(C(C)C)ncc1C(=O)N(C)Cc1cccc2cnccc12	3	35
CCC1CN(C(=O)c2ccc(CO)o2)CCC(=O)N1Cc1ccccc1 (stereo not given)	-9	-10
COCCN1CCN(c2c3c(nc4ncnn24)CCCC3)CC1	23	11
CN1CCC(CN(CCc2ccccc2)Cc2ccccc2F)CC1	7	0
CC(NC(=O)c1ccc(-c2ccc3c(c2)OCCO3)s1)c1ccc(Br)cc1 (stereo not given)	-4	7
COCCN(Cc1ccc(OS(=O)(=O)c2ccc(F)cc2)cc1)C(=O)c1cccs1	0	5
Cc1cc(NC(=O)NC(C)C23CC4CC(CC(C4)C2)C3)no1 (stereo not given)	2	3
COC(=O)Cn1c(CN2CC(C)OC(C)C2)nc2c1c(=O)n(C)c(=O)n2C (stereo not given)	3	1
Cc1c(NC(=O)c2ccsc2)cccc1S(=O)(=O)NC1CC1	-2	18
Brc1ccc(Nc2ncnc3sccc23)c(Br)c1	15	9
CC(C)SC(NC(=O)OCc1ccccc1)C(=O)N1CC=C(c2ccc(Cl)cc2)CC1 (stereo not given)	-3	-8
COc1ccc(C2NC(=O)NC(O)(C(F)(F)F)C2C(=O)c2ccccc2)cc1 (stereo not given)	3	2
Cc1cc(C)n(CC(C)CNC(=O)N2CC3CC4CC(C3)CC2C4)n1 (stereo not given)	-3	-5
O=C(CSc1nnc(-c2ccccc2Cl)n1-c1ccccc1Cl)NCc1ccccc1	4	7
CN(Cc1ccsc1)C(=O)C1(c2ccc(F)cc2)CCOCC1	12	3
OC(CN1CCN(c2ccc(F)cc2)CC1)c1ccc(Cl)cc1 (stereo not given)	0	-2
COc1ccc(CCNC(=O)Nc2nn(Cc3ccc(COc4cccc(OC)c4)cc3)c3ccccc23)cc1	4	14
COCc1c(C(=O)Nc2ccc(NC(C)=O)cc2)oc2ccccc12	2	5
CCN1CC2=C(OC(=N)C(C#N)C2c2ccc(OC)cc2)/C(=C\c2ccc(OC)cc2)C1 (stereo not given)	5	1
O=C(CSc1nc2sc3c(c2c(=O)[nH]1)CCCC3)Nc1ccon1	4	-2
Cc1cccn2c(CNC(=O)C(C)n3ccnc3C(C)C)cnc12 (stereo not given)	-1	3
CC(C)(C)OC(=O)N(Cc1ccc(Br)cc1F)C1CCC(C(=O)N2CCOC(COCc3ccccc3F)C2)CC1 (stereo not given)	3	2
CCCCn1nc(C)c(C(=O)N2CCC(C(N)=O)C2)c1Cl (stereo not given)	4	-2
COc1ccc(-c2ccc3nnc(SC)n3n2)cc1	-16	-10
The list goes on:
SMILES	NPYLR7 ag	NPYLR7 ag max-min
COc1ccc(N2CCN(C(=O)C3CC=CCC3C(=O)NCc3ccc(OC)cc3OC)CC2)cc1 (stereo not given)	-10	-15
CC(=O)c1[nH]c(C)c(C(=O)N(Cc2ccsc2)CC2CCCO2)c1C (stereo not given)	1	0
CCN(CCCc1ccccc1)CCCc1ccccc1	-6&-5&-1	-15&-6&-6
N=C1c2ccccc2CN1c1ccc(OC(F)(F)C(F)F)cc1	-1	-2
CCOC(=O)c1nn(-c2ccccc2)c(=O)cc1N1CCN(c2ccc(F)c(Cl)c2)CC1	7	1
O=C(CSc1nc(=O)n(Cc2ccncc2)c2c1CCC2)NC1CCCCC1	2	-1
CCS(=O)(=O)c1ccc2oc(-c3ccccc3OS(=O)(=O)c3ccc(F)cc3)nc2c1	7	10
Cc1ncccc1C(=O)N1Cc2cnn(CCO)c2C1	18	7
COc1ccc(OC)c(-c2cc(N)c(=O)n(Cc3ccncc3)n2)c1	-3	-4
O=C(c1ccc(Cl)cc1F)N1CCC(OCCCc2ccccc2)C1 (stereo not given)	1	-2
O=c1oc2cc(OCCO)ccc2c2c1CCCC2	14	29
O=C(O)C1CC2(CCNCC2)CN1Cc1ccc(-c2ccn[nH]2)o1 (stereo not given)	4	4
CC(=O)N1N=C(c2cccs2)CC1c1cccs1 (stereo not given)	1	-2
CC12C=CC(O1)C1C(=O)N(c3cccc(C(=O)O)c3)C(=O)C12 (stereo not given)	13	-6
Nc1nnc(-c2ccc(Cl)cc2)o1	0	-1
COc1cc2c(cc1OC)C1(CCCC1)CNC2CO (stereo not given)	20	12
COc1cn2c(cc1=O)C(=O)N(CCNC(=O)c1c(F)cccc1Cl)CC2	-4	-7
CCC(NC(=O)CCCCOc1cccc(C)c1)c1ccncc1 (stereo not given)	-6	-7
O=C(CN1CCN(S(=O)(=O)c2cc(C(F)(F)F)ccc2Cl)CC1)NC1CCCCCC1	-12	-13

Compound profiles (already shown). Values in the order: NPYLR7 ag	NPYLR7 ag max-min
CCS(=O)(=O)c1ccc2oc(-c3ccccc3OS(=O)(=O)c3ccc(F)cc3)nc2c1 is entered as 7	10
CCN(C)c1cc(Oc2ccc(F)c(Cl)c2)ncn1 is entered as -11	-8
CCC(CC)C1C2=C(CC(C)(C)CC2=O)OC(=N)C1C#N (stereo not given) is entered as 10	9
Cc1noc(-c2cccnc2)c1C(=O)NCc1cccc2ccccc12 is entered as 2	5

Among those listed so far, these contain a cyano group:
SMILES	NPYLR7 ag	NPYLR7 ag max-min
Cc1cc(C)c(C#N)c(SCc2ccc(C(=O)N3CCCC3)cc2)n1	-2	-2
CCC(CC)C1C2=C(CC(C)(C)CC2=O)OC(=N)C1C#N (stereo not given)	10	9
N#Cc1cc(CN2CCC(Nc3ncnc4sc(Cl)cc34)CC2)ccc1F	-3	-6
CCN1CC2=C(OC(=N)C(C#N)C2c2ccc(OC)cc2)/C(=C\c2ccc(OC)cc2)C1 (stereo not given)	5	1
